# Screening data as filed in PubChem.
# Anaer choline gr – choline-fed anaerobic bacterial growth inhibition. 0.2% of 55,000 active. calls only. Gram-negative bacterium anaerobic choline minimal medium, absorbance growth; stronger effect = lower value; many inactives read as strong as hits in the columns shown;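 active = growth z-score on choline under -2 at 7 or 20 h with little or no fall on glycerol, limits in tiers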;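 also: stock transfer was 300 nL into about 50 µL; the organism is E. coli; final concentration not given here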
# Anaer choline gr early – recorded beside Anaer choline gr, whose call it bears; z-score; measured here: choline growth z-score, timepoint 1;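 score of optical density at 7 h as mean of two plates; lower means less growth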
# Starred values were filed as active, the others as inactive; i = inactive; & = joins results of further samples. Some of the compounds tested; count on the stated rates, not on these rows.
SMILES,Anaer choline gr,Anaer choline gr early
O=C(CCCN1CCN(c2ccccn2)CC1)c1ccc(F)cc1,i,-0.68&-0.14&0.04
C=CCn1c(=O)c(C(=O)Nc2ccc3c(c2)OCO3)c(O)c2ccccc21,i,1.1
CCCn1c(=O)c2ccc(C(=O)NC(C)C)cc2n2c(=O)n(CC(=O)c3cc(C)ccc3C)nc12,i,0.32
Cc1ccc(CNS(=O)(=O)c2cc(-c3nc(C)c(C)s3)cs2)cc1,i,2.6
Cc1noc2c1C(c1ccc(O)c(O)c1)C1=C(CCCC1=O)N2 (stereo unspecified),i,0.16
Cn1c(=O)c(C(=O)Nc2cccc(F)c2)nc2ccccc21,i,0.55
Cc1ccc(-c2[nH]nc3c2C(C(=O)c2ccc4c(c2)OCO4)CC(=O)N3)cc1 (stereo unspecified),i,-0.62
Cc1ccc(C(=O)NCCc2csc3nc(-c4cccc(F)c4)nn23)cc1C,i,0.19
Cc1cc(C)c2c(=O)cc(C(=O)Nc3cccnc3)oc2c1,i,0.57
O=C(c1ccc(-c2noc(C3CCCC3)n2)cc1)N1CCCC1,i,-0.08
COc1ccc(/C=C\c2onc(C)c2S(=O)(=O)N2CCC(C(=O)Nc3cccc(Cl)c3)CC2)cc1,i,-1.5
Cc1cc(C)c(/C=C/c2onc(C)c2S(=O)(=O)N2CCCC(C(=O)N3CCN(C)CC3)C2)c(C)c1 (stereo unspecified),i,0.91
CC1CCN(C(=O)CN2C(=O)C3CCCN3C(=O)c3cc(F)ccc32)CC1 (stereo unspecified),i,-0.06
Cc1ccc(OCc2nc(-c3ccc(C(=O)NCCc4ccc(S(N)(=O)=O)cc4)cc3)oc2C)cc1,i,-0.28
CC(=O)Nc1ccc(-c2noc(C3CCCN(C(=O)c4ccc(C(C)C)cc4)C3)n2)cc1 (stereo unspecified),i,-0.03
Cc1ccc2cc(-c3noc(CCCC(=O)NC4CCCC4)n3)c(=O)[nH]c2c1,i,-0.38
Cc1cc(C)c2c3c(sc2n1)C(=O)N(c1ccc(Cl)cc1)CN3,i,0.58
COc1ccc(N2CC(NC(=O)Nc3nc4ccccc4s3)CC2=O)cc1 (stereo unspecified),i,-0.09
COc1ccc(C(=O)CN2C(=O)COc3ccccc3C2=O)cc1F,i,-0.68
O=C1c2ccccc2S(=O)(=O)N1CCCCN1CCN(c2ncccn2)CC1,i,0.17
O=C(NCC1CCCO1)c1ccc(NC(=O)c2nsc3ccccc23)cc1 (stereo unspecified),i,-1.7
CCN1CCCn2nc(C3CCN(S(=O)(=O)c4cnn(CC)c4)CC3)cc2C1=O,i,-0.56
CCOc1ccc(-n2cc(C(=O)N3CCN(c4ccccn4)CC3)c3cc(OC)c(OC)cc3c2=O)cc1,i,-0.47
CC(C)c1ccc(NC(=O)Cn2nc(C(=O)Nc3ccccc3)ccc2=O)cc1,i,0.4
Cc1c(C)n(Cc2ccccc2)c2ccc(C(=O)NCC3CCCO3)cc12 (stereo unspecified),i,1.1
CCN(CC)CCNS(=O)(=O)c1ccc2c(c1)N(C(C)=O)CCCS2,i,-1.1
CCn1cccc1-c1nc(C)c(C(=O)NCCc2ccc(Cl)cc2)s1,i,0.45
Cc1nc2nc(-c3ccccc3)nn2c(C)c1CC(=O)NC(C)C,i,-0.04
CCN1C(=O)CCc2cc(NS(=O)(=O)c3ccc4c(c3)CCCC4)ccc21,i,0.35
Cc1nc(-c2ccc(N3CCN(C(=O)Nc4cccc(C)c4C)CC3)cc2)no1,i,-0.22
Cc1nn(-c2ccccc2)c2c1CN(C(=O)Nc1cccc(Br)c1)C(c1ccccc1)c1cccn1-2 (stereo unspecified),i,-1.2
CCOC(=O)c1nc(Nc2ccc(OC)cc2OC)c2c(C)c(C)n(-c3cccc(Cl)c3)c2n1,i,0.8
CS(=O)(=O)N1CCN(c2ncnc3c2nnn3-c2ccc(F)cc2)CC1,i,-0.63
CN(C)CCCn1c(=O)n(C)c(=O)c2[nH]cnc21,i,0.01
O=S(=O)(c1ccccc1F)N1CCc2c([nH]c3ccccc23)C1c1ccc(Cl)cc1 (stereo unspecified),i,0.17
COC(=O)c1sccc1NC(=O)C1CCN(Cc2nc(-c3ccc(OC)c(OC)c3)no2)CC1,i,0.34
COc1ccccc1NC(=O)NC(Cc1ccccc1)Cc1ccccc1,i,1.4
CCCn1c(=O)c2ccccc2n2c(=O)n(CC(=O)Nc3ccc4c(c3)OCCO4)nc12,i,-0.36
O=c1c2cn[nH]c2nc(SCc2nc(-c3ccc(Cl)cc3)no2)n1-c1ccccc1,i,-0.93
CCN(CC)c1ccc(NS(=O)(=O)c2ccc(N3C(=O)C(C)CS3(=O)=O)cc2)cc1 (stereo unspecified),i,-1.9
CCSc1ncc2c(=O)n(CC(=O)Nc3ccc(F)cc3F)cnc2n1,i,0.91
Cn1cnc2ccc(-c3noc(C4CCCO4)n3)cc21 (stereo unspecified),i,-0.18
O=C1Nc2cc(S(=O)(=O)NC3CCCCC3)ccc2SCC1CC(=O)N1CCCC1 (stereo unspecified),i,-0.58
Cc1cccc(-c2csc3c(=O)[nH]cnc23)c1,i,-1.9
Cc1nn(-c2ccc(F)cc2)c2c1c(=O)c(C(=O)NCCN1CCCC1)cn2C,i,-0.19
Fc1ccc2c(c1)c1nnc(-c3ccccc3)c-1cn2Cc1ccccc1,i,-0.15
Cc1ccc(-c2noc(-c3nnn(Cc4nc(-c5ccc(C)cc5)oc4C)c3C)n2)cc1,i,-0.93
COc1ccc(CCNC(=O)c2nnc(-c3ccc(S(=O)(=O)N4CCCC4)cc3)o2)cc1OC,i,-1.2
Cc1ccc(-c2csc3c(=O)n(C)c(SCC(N)=O)nc23)cc1,i,0.73
O=C(NCc1ccccc1)c1cc(-c2ccccn2)nc2ccc(S(=O)(=O)N3CCOCC3)cc12,i,-0.94

# Going on with the list:
SMILES,Anaer choline gr,Anaer choline gr early
COc1ccc(Nc2nc3nonc3nc2Nc2cccc(Br)c2)cc1,i,0.61
COc1ccc(-c2nc3c(s2)CN(C(=O)c2ccccc2F)CC3)cc1,i,-0.38
Cc1cc2n(n1)CCC(=O)N2CC(=O)NC(C)C,i,-1.2
Cn1cnnc1C1CCCN(Cc2ccccc2C(F)(F)F)C1 (stereo unspecified),i,0.05
C=CCN(C(=O)C(C)Sc1ncc(C(=O)OCC)c(N)n1)c1ccccc1 (stereo unspecified),i,-0.99
CCC(C(=O)Nc1ccccc1F)n1nc(C)c2c(C)n(-c3ccccc3)nc2c1=O (stereo unspecified),i,0.24
CCn1c(=O)c(N2CCCC(C(=O)NCCc3c[nH]c4ccc(OC)cc34)C2)nc2ccccc21 (stereo unspecified),i,0.89
CCn1c(SCc2ccc(Cl)cc2)nc(=O)c2c(C(=O)OC)cc(C)nc21,i,0.17
Cc1cccc(-c2noc(-c3cn(Cc4ccc(NC(=O)c5ccc6c(c5)OCO6)cc4)cn3)n2)c1,i,1.1
COC(=O)c1ccccc1NC(=O)CSc1nnc(-c2sc3ccccc3c2Cl)o1,i,1.2
Cc1nc2c(c(SCC(=O)Nc3nc(-c4ccccc4)cs3)n1)CCC2,i,0.2
O=C(Cn1nc(C(=O)Nc2ccccc2)ccc1=O)Nc1ccc(Cl)cc1,i,0.06
Cc1nc2ccccc2c(=O)n1-c1ccc(NC(=O)C(C)Oc2ccccc2)cc1 (stereo unspecified),i,-1.2
O=C(NC1CCCCC1)N1CCCC1c1ccccc1F (stereo unspecified),i,-0.63
c1ccc2c(-c3nn4c(-c5ccncc5)nnc4s3)c[nH]c2c1,i,-0.18
Cc1nc(CNC(=O)[C@H]2CSCN2S(=O)(=O)c2ccc(F)cc2)cs1,i,-0.55
O=C1CCCc2[nH]c(=O)c(C(=O)Nc3ccccc3F)cc21,i,-0.42
O=C(NCC1CCCO1)c1c(NC(=O)c2nn(-c3ccc(Cl)cc3)ccc2=O)sc2c1CCC2 (stereo unspecified),i,0.2
O=S(=O)(c1ccccc1)N1CCn2cccc2C1c1ccccc1F (stereo unspecified),i,1.3
Cc1cc(N(C)C)nc(Nc2ccc(NC(=O)C3CCCO3)cc2)n1 (stereo unspecified),i,-0.7

# Fetched by structure from the list above (4):
SMILES,Anaer choline gr,Anaer choline gr early
Cc1nc(CNC(=O)[C@H]2CSCN2S(=O)(=O)c2ccc(F)cc2)cs1,i,-0.55
Cc1cc(N(C)C)nc(Nc2ccc(NC(=O)C3CCCO3)cc2)n1 (stereo unspecified),i,-0.7
O=C(NCC1CCCO1)c1c(NC(=O)c2nn(-c3ccc(Cl)cc3)ccc2=O)sc2c1CCC2 (stereo unspecified),i,0.2
O=C(Cn1nc(C(=O)Nc2ccccc2)ccc1=O)Nc1ccc(Cl)cc1,i,0.06

# The results go on.
SMILES,Anaer choline gr,Anaer choline gr early
Cc1csc(-c2cc(S(=O)(=O)NCCN3CCCCC3C)cn2CC(=O)N2CCCCC2)n1 (stereo unspecified),i,-0.52
COC(=O)C1=CN(c2ccc(C)c(C)c2)c2cc(F)c(F)cc2S1(=O)=O,i,-1.2
O=c1[nH]c2ccc(NS(=O)(=O)c3cc(F)ccc3F)cc2s1,i,-1.9
O=C(C1CCCN(c2ccnc(-c3ccccc3)n2)C1)N1CCN(Cc2ccccc2)CC1 (stereo unspecified),i,-2.1
O=C(c1cccc(-c2noc(-c3ccccc3Br)n2)c1)N1CCCC1,i,-1.6
CCN(CC)c1ccc(-c2nc(-c3ccc(Cl)cc3)no2)nn1,i,0.59
COc1ccccc1-n1cc[nH]c(=O)c1=O,i,-0.01
Cc1ccc(C2=NC3(CCCCCC3)N(CC(=O)Nc3ccc(F)c(Cl)c3)C2=O)cc1,i,0.55
CCOC(=O)c1nc(Nc2ccc3c(c2)OCCO3)c2c(C)c(C)n(-c3cccc(Cl)c3)c2n1,i,-0.03
CC(=O)Nc1ccc(NC(=O)Cc2csc(NC(=O)Nc3ccccc3)n2)cc1,i,0.66
COc1ccc(CNC(=O)CSc2nc3c(-c4ccccc4)csc3c(=O)n2C)cc1,i,1.7
CCN(Cc1ccccc1)c1ccc(NS(=O)(=O)c2ccc(OC)cc2)cc1C(=O)O,i,-0.94
O=C(Cn1c(=O)oc2ccccc21)N1CCN(c2ccccn2)CC1,i,-0.67
Cc1cc2nc(CSc3nnc(NC(=O)Nc4ccccc4)s3)cc(=O)n2o1,i,0.57
CCOC(=O)c1ccc(NS(=O)(=O)c2c(C(=O)N3CCCC3)c(C)n(C)c2C)cc1,i,0.08
CCCc1cc(C2CCCN2Cc2cn[nH]c2-c2cc(OC)ccc2OC)no1 (stereo unspecified),i,0.29
CN(C)S(=O)(=O)c1ccc(-c2noc(C(=O)NCCN3CCCC3)n2)cc1,i,-0.7
Cc1oc(C2CCN(C(=O)NC3CCCCC3)CC2)nc1C(=O)N(C)C,i,-1.3
O=C(NC1CCCC1)c1cccc(NC(=O)c2nsc3ccccc23)c1,i,-0.89
CCOC(=O)c1c(NC(=O)C(C)Sc2nnc3[nH]c(=O)cc(C)n23)sc2c1CCCC2 (stereo unspecified),i,-0.25
Cc1sc2c(=O)n(C)nnc2c1C(=O)NCCN(C)C,i,-1.3
OCCSc1nnc2sc3ccccc3n12,i,-0.28
COc1ccc(S(=O)(=O)Nc2cccc(N3CCCS3(=O)=O)c2)cc1OC,i,-0.34
O=c1c2ccccc2c(-c2nc(-c3ccccn3)no2)nn1-c1ccc(F)cc1,i,0.86
CCc1ccc(NC(=O)Cn2c(SCc3cccc(C)c3)nc3ccncc32)cc1,i,0.61
c1ccc(-c2ccccn2)nc1,i,-1
COc1ccccc1-c1nnc(-c2cccc(Cl)c2)o1,i,0.5
O=S(=O)(c1ccc(Br)cc1)N1CCCC1c1ccccc1F (stereo unspecified),i,0.77
O=C(c1cn(-c2ccccc2)cn1)N1CCC(Cc2ccccc2)CC1,i,0.21
COc1ccc(NC(=O)c2nnc(CSCC(=O)NCCc3c[nH]c4ccccc34)s2)cc1,i,0.76

# Quoted from the listing for reference:
SMILES,Anaer choline gr,Anaer choline gr early
COc1ccc(CNC(=O)CSc2nc3c(-c4ccccc4)csc3c(=O)n2C)cc1,i,1.7
CCN(Cc1ccccc1)c1ccc(NS(=O)(=O)c2ccc(OC)cc2)cc1C(=O)O,i,-0.94
O=C(Cn1c(=O)oc2ccccc21)N1CCN(c2ccccn2)CC1,i,-0.67

# Other results:
SMILES,Anaer choline gr,Anaer choline gr early
CN(C)c1ccc(CN(C(=O)c2cc(-c3ccc4c(c3)OCCO4)on2)C2CCS(=O)(=O)C2)cc1 (stereo unspecified),i,0.27
Cc1c(S(=O)(=O)NC(C)C)c(C)n(C)c1-c1nnc(C2CCC2)o1,i,0.81
O=Cc1c2[nH]c3ccccc3c2cc2[nH]c3ccccc3c12,i,0.71
CCOC(=O)c1c(C)[nH]c(C(=O)N2CCC(CC(=O)N3CCN(c4ccccc4)CC3)CC2)c1C,i,-0.43
Cn1c(C(=O)NCCC2=CCCCC2)cc2c(=O)oc3ccccc3c21,i,1.4
COc1ccc(OC)c(N2C(=O)c3cc4occc4n3CC2(C)C(=O)NC2CCC(C)CC2)c1 (stereo unspecified),i,-0.37
Cc1nn(C)c(C)c1CCN(C)c1nc(C2CC2)nc2c1CCC2,i,0.9
Cc1c(Cl)cccc1S(=O)(=O)N1CCc2nc(N3CCCCC3)ncc2C1,i,1.3
Cc1nn(-c2cc(N3CCOCC3)ncn2)c(C)c1CCC(=O)N1CCN(c2ccc(F)cc2)CC1,i,-1.5
COc1ccc(NC(=O)CN(C)S(=O)(=O)c2ccc3c(c2)CCCC(=O)N3)cc1,i,0.49
COC(=O)c1ccc(Cl)cc1NC(=O)N1CCN(Cc2nc3cccnc3n2-c2ccccc2)CC1,i,0.17

# Part of the list above, bar-delimited:
SMILES | Anaer choline gr | Anaer choline gr early
Cc1c(S(=O)(=O)NC(C)C)c(C)n(C)c1-c1nnc(C2CCC2)o1 | i | 0.81
O=Cc1c2[nH]c3ccccc3c2cc2[nH]c3ccccc3c12 | i | 0.71
